# Assay outcomes (PubChem)
# Autofluor counter: flagged as autofluorescent in microsphere protease counterscreen | fluorescence intensity (test concentration not listed) | 3.1% of 360,000 active | AID 624483 | compound autofluorescence counterscreen, microsphere flow cytometry; active compounds read high;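 active = at least 3 SD above the mean of all compounds, about 16000 in these data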;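 note: 100 nL of 1 mM stock went into each well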
# Mtb hypoxia inh: inhibitors of hypoxia-regulated fluorescent reporter in Mycobacterium tuberculosis; 0.1% of 300,000 active; M. tuberculosis hypoxia-regulated fluorescent reporter, fluorescence; AID 1159583; fluorescence inhibition, % (no concentration beside the values);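 active = 35 to 45% if threefold the growth effect, above 45% if 1.5-fold the growth effect; inactive = the rest, general growth blockers included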;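 note: wells of about 50 µL received 100 nL stock; 0% = vehicle wells and 100% = reference inhibitor wells; whole bacteria with a GFP reporter of the hypoxia response; strong numbers were not always called active; many hits fall short of the cut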
# Sa RN4220 lethal: S. aureus RN4220 growth inhibition; OD600, 16 h; 0.33% of 330,000 active; AID 1259311; inhibition, % (no concentration beside the values);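 active = z-score of -3 or lower and OD600 up to 0.18 on both plates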;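 note: plate controls were untreated cells for no effect and reference antibiotic for full effect; stock transfer was 100 nL into about 80 µL; one replicate is shown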
# PrP UTR inh: inhibition of PrP 5' UTR reporter expression; inhibition, % (test concentration not listed); 0.35% of 340,000 active; cell-based PrP 5' UTR mRNA reporter, plate reader;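 active = every replicate at 50% or more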;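 note: 0 = median of the neutral control wells; tested in H4 reporter cells; numbers are from one replicate; inactives centre near -14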
# BJeLR lethal: BJeLR cell viability loss | BJeLR (HRASV12) viability, CellTiter-Glo ATP luminescence, 48 h; reference of the scale not given here | inhibition, % (concentration not given with the values) | 0.17% of 300,000 active;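 active = replicate mean above 50%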;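 note: 50 nL library stock added to about 25 µL; numbers are from one replicate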
# ugtP null kill: growth inhibition of S. aureus ugtP deletion strain; S. aureus RN4220 ugtP deletion, OD600 growth, 16 h; some inactives read as strong as hits; 0.54% of 330,000 active; growth inhibition, % (concentration not given with the values);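 active = z-score under -3 and OD600 up to 0.15 on both plates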;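 note: plate controls were untreated wells for no effect and antibiotic for full effect; wells of about 80 µL received 100 nL stock; the first replicate is given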
# Mtb hypoxia inh growth: recorded beside Mtb hypoxia inh, whose call it bears; growth inhibition, %; measured here: M. tuberculosis growth (absorbance);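 0% = vehicle and 100% = reference antibiotic; read after six days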
# * hit, by the source's call; · = no result given.
nr	structure	Autofluor counter	Mtb hypoxia inh	Mtb hypoxia inh growth	Sa RN4220 lethal	PrP UTR inh	BJeLR lethal	ugtP null kill
1	COc1ccc(NC(=O)Nc2cccc3c2O[C@H](CN(C)C(=O)Nc2ccc4c(c2)OCO4)[C@@H](C)CN([C@H](C)CO)C3=O)cc1	3730	1	8	-14	-18	·	-9
2	CCCc1cc(=O)[nH]c(SCC(=O)Nc2oc(C)c3c(C)n[nH]c(=O)c23)n1	5646	-2	-5	6.4	-13	-2	9
3	CN(C)C(=O)CCc1ccc2c3c([nH]c2c1)[C@]1(CCC2CCCC2)[C@@H](C(=O)N2CCOCC2)C[C@H](CC(=O)NCCN2CCOCC2)C(=O)N1CC3	3794	0	0	-8.4	-11	·	3
4	Cc1sc2nc3n(c(=O)c2c1C)NC(=O)CC3	4634	·	·	3.4	-8	2	0
5	O=C(O)c1ccc2c(c1)C(=O)N(c1ncccn1)C2=O	1935	3	-2	4.3	-14	1	12
6	COc1ccc(-c2c(C)nn(-c3ccccc3)c2NC(C)=O)cc1OC	3510	19	11	3.1	-11	-6	7
7	Cc1ccc(C(=O)N/N=C2\CCc3ccccc32)c(C)c1	2035	·	·	·	-111	3	·
8	Cc1ccc(C(=O)N2CCC(n3nccc3NC(=O)Nc3cccc(F)c3)CC2)cn1	5348	9	2	5.3	-9	11	10
9	O=C1Nc2ccc(Br)cc2C12OCCO2	3364	-1	-6	2.1	-30	7	-3
10	O=C(Nc1cccc2ccccc12)NC1CCS(=O)(=O)C1 (configuration not stated)	2542	5	2	5.4	-2	-2	-6
11	CC(C)CCN1CCN(C/C=C/c2ccco2)CC1CCO (configuration not stated)	3960	7	-4	5.7	-19	13	0
12	COCCn1cc(C(=O)NCCCOC(C)C)c2c3ccccc3n(C)c2c1=O	2977	8	-3	0.9	-2	4	8
13	CC(C)N(Cc1ccccc1)C(=O)C1CCN(c2ncnc3c2nc2n3CCCCC2)CC1	5206	10	0	-1.2	-16	8	4
14	Cc1ccc(C)c(CS(=O)(=O)c2cn(CC(=O)N3CCCCC3)c3ccccc23)c1	9042	4	6	9.4	-35	1	-1
15	COC(=O)/C=C1\C(=O)N(c2nc3ccccc3s2)C(=S)N1c1ccc(F)cc1	15862	1	3	-2.9	-49	3	-17
16	COc1ccc(CCCNC(=O)C2CCC(=O)N(CC3CCCCC3)C2)cc1 (configuration not stated)	4642	16	-22	-9.1	-13	1	-6
17	Cc1cc(C)cc(NC(=O)Cn2nnc(C(=O)NCc3ccc4c(c3)OCO4)c2N)c1	5119	-1	3	4.2	-1	6	-2
18	COc1ccc(NC(=O)CO/N=C(\C)c2cccs2)cc1	2427	·	·	·	-6	5	·
19	CCCC(=O)Nc1nnc(SCC(=O)NCc2ccco2)s1	5999	1	10	-1.3	-14	-19	0
20	C=CCN1C(=O)C2C(C(=O)NC3CCCCC3)C3C=CC2(O3)C1C(=O)NC1CCCC1 (configuration not stated)	4198	10	7	2.7	-19	1	4
21	CC(C)OCCCNC(=O)CCc1nc(-c2ccccc2)no1	8064	9	2	0.0	-13	5	-1
22	C#CCOc1ccc(/C=C2/C(=O)ON=C2C)cc1Br	3817	3	-7	-1.2	-18	-2	1
23	CCC(/C=N/NC(=O)C(N)=O)CC	2313	·	·	·	-9	-8	·
24	Cc1ccc2cc(C(c3nnnn3C(C)(C)C)N3CCCCCC3)c(=O)[nH]c2c1 (configuration not stated)	10312	16	5	5.7	-14	-5	-2
25	Cc1cccc(C)c1NC(=O)CN(C)C(=O)CCC(=O)c1ccccc1	4728	12	6	5.6	·	·	-2
26	O=c1[nH]c(N/N=C/c2ccc(O)cc2)nc2ccccc12	2526	·	·	·	-83	-6	·
27	Cc1cc(C)n(-c2cccc(Cl)c2)c(=O)c1C#N	3982	·	·	1.7	-2	0	4
28	CN(C(=O)CCCN1CCCC1=O)C1CCCN(Cc2ccccc2F)C1 (configuration not stated)	5772	3	1	2.4	-4	-7	5
29	COc1ccc(N(C(=O)c2ccn[nH]2)C(C(=O)NC2CCCC2)c2ccc(F)cc2)cc1 (configuration not stated)	4014	-5	-3	-1.4	-16	6	4
30	O=C(O)C1(Nc2ccc(Br)cc2)CCCC1	3088	14	9	3.0	4	·	-3
31	C=CCNC(=O)c1ccc2c(c1)N(CC)C(=O)c1ccccc1S2	3905	4	-2	4.6	-18	2	1
32	CC(C)CCN1CCN(Cc2ccon2)CC1CCO (configuration not stated)	3270	-3	9	9.1	-28	3	-70
33	Cc1cc(C)nc(SCc2nnc(SCC(=O)Nc3nccs3)n2C)n1	3492	·	·	2.0	1	·	9
34	CCC1S/C(=N/S(=O)(=O)c2ccc(N)cc2)NC1=O (configuration not stated)	3668	·	·	1.8	-7	·	14
35	O=C(Oc1ccc(Cl)cc1)N1CCOCC1	3275	14	5	1.4	-39	-3	9
36	COc1ccccc1NS(=O)(=O)c1ccc(-c2cnc(C3CC3)o2)cc1	5822	0	6	16	14	-3	-20
37	COc1ccc(CCNC(=O)CSc2nc3ncccc3[nH]2)c(OC)c1	3893	-2	3	0.1	-8	-7	1
38	O=C1NC(=O)N(Cc2ccccc2)C(=O)/C1=C\C=C\c1ccco1	2573	-10	3	2.4	-18	31	8
39	CCOC(=O)C(C)/C(C)=N/NC(N)=S (configuration not stated)	2230	·	·	·	-6	12	·
40	CCN(CC)S(=O)(=O)c1ccc(N2CCCC2)c(NC(=O)c2ccccc2OC)c1	4722	-3	8	3.6	-7	14	5

# A second format for part of the listing above.
# Values run as follows: Autofluor counter, Mtb hypoxia inh, Mtb hypoxia inh growth, Sa RN4220 lethal, PrP UTR inh, BJeLR lethal, ugtP null kill
(21) CC(C)OCCCNC(=O)CCc1nc(-c2ccccc2)no1
    8064, 9, 2, 0.0, -13, 5, -1
(38) O=C1NC(=O)N(Cc2ccccc2)C(=O)/C1=C\C=C\c1ccco1
    2573, -10, 3, 2.4, -18, 31, 8
(32) CC(C)CCN1CCN(Cc2ccon2)CC1CCO (configuration not stated)
    3270, -3, 9, 9.1, -28, 3, -70
(28) CN(C(=O)CCCN1CCCC1=O)C1CCCN(Cc2ccccc2F)C1 (configuration not stated)
    5772, 3, 1, 2.4, -4, -7, 5
(37) COc1ccc(CCNC(=O)CSc2nc3ncccc3[nH]2)c(OC)c1
    3893, -2, 3, 0.1, -8, -7, 1

# (cont.)
nr	structure	Autofluor counter	Mtb hypoxia inh	Mtb hypoxia inh growth	Sa RN4220 lethal	PrP UTR inh	BJeLR lethal	ugtP null kill
41	N#C/C(=C(/O)CSc1ccccc1C(=O)O)c1nc2ccccc2s1	8948	5	10	11	-12	-1	-2
42	COc1ccc(NC(=O)C(Sc2ccccc2)c2ccccc2)c(OC)c1 (configuration not stated)	6679	·	·	·	-10	10	·
43	O=C(Cn1[nH]c(=O)c2ccccc2c1=O)Nc1cccnc1	4635	3	8	2.2	-8	12	3
44	CC(=O)Nc1nc(-c2ccccc2)nc(-c2ccccc2OC(C)=O)n1	8246	15	6	14	4	-9	-11
45	CN(C)c1ccc(C2N(c3ccc(F)cc3)C(=O)C3CCCN32)cc1 (configuration not stated)	5761	·	·	0.5	-45	-10	4
46	O=C(NCc1ccccc1CN1CCCC1)c1ccc(Cl)c(S(=O)(=O)N2CCCC2)c1	8665	4	1	1.3	-18	·	6
47	Cc1cc(C)cc(NC(=O)CSc2ccc(-c3cccs3)nn2)c1	6867	·	·	·	-5	-6	·
48	COC(=O)c1[nH]c2ccccc2c1NC(=O)CNC1CCCCC1	3747	13	18	2.4	-9	-8	-5
49	Cc1cc(C)c2nc(SCC(=O)N(C)C3CCS(=O)(=O)C3)cc(C)c2c1 (configuration not stated)	2505	-7	5	8.0	-2	-1	-1
50	CCN(CC)CCCN1C(=O)CSC1c1ccc([N+](=O)[O-])cc1 (configuration not stated)	4736	-2	5	2.5	-23	3	7
51	Cc1cccc(NS(=O)(=O)c2cc3c4c(c2)CCC(=O)N4CCC3)c1	4537	5	6	10	-11	-6	13
52	CC(Sc1nnc(N)s1)C(=O)c1c(N)n(C)c(=O)n(C)c1=O (configuration not stated)	6360	2	-8	3.1	-13	·	5
53	CCC1=C(OC(=O)N(CC)CC)N2C(=O)OC(=NCC3CC3)[C@]2(Cc2ccccc2)C2C1=CCC1C(=O)N(CC(=O)OC)C(=O)C12 (some centres not stated)	·	3	9	6.3	·	·	6
54	Cc1ccc(C(C(=O)NC2CCCCC2)N2CCN(C(=O)c3ccco3)CC2)cc1 (configuration not stated)	4360	20	5	2.9	-3	-6	18
55	Cc1ccccc1NC(=O)NC1(C(=O)NCC2CCCO2)CCCCC1 (configuration not stated)	3707	-2	-1	-2.9	-10	2	5
56	OCCNc1nc2ccccc2n1CC(O)c1ccccc1 (configuration not stated)	3958	8	9	12	-13	-8	18
57	Cc1ccc(C(=O)NNC(=O)c2ccncc2)cc1C	3818	-7	1	5.5	-3	4	6
58	O=S(=O)(Nc1nc(SCc2ccc(Cl)cc2)n[nH]1)c1ccc(F)cc1	·	4	8	4.7	-1	7	-23
59	O=[N+]([O-])c1ccc(N2CCN(S(=O)(=O)c3ccc4ccccc4c3)CC2)cc1NCC1CCCO1 (configuration not stated)	2538	4	0	1.8	-22	-5	3
60	CCOC(=O)C1=C(C)Nc2ccccc2N=C1NC(=O)c1ccc(Cl)c(S(=O)(=O)N2CCCC2)c1	4448	11	-3	4.7	-17	-13	-1
61	CCCN(C(=O)c1ccc(N2CCCC2=O)cc1)c1c(N)n(Cc2ccccc2)c(=O)[nH]c1=O	4997	1	1	0.3	-7	1	5
62	Cc1cc(SCNC(=O)c2ccccc2)nc(C(C)C)n1	3962	7	2	-4.4	-16	-1	1
63	c1ccc(-c2nc3nc4ccccc4nc3n2Cc2ccco2)cc1	4715	5	4	2.9	-46	-3	-3
64	CCN(CC)S(=O)(=O)c1ccc(NC(=O)COC(=O)c2ccc(Br)o2)cc1	3654	·	·	2.9	-11	-1	8
65	N#Cc1cc2c(nc1SC1CCCCC1O)CCCC2 (configuration not stated)	3182	-1	3	1.5	-8	-1	0
66	CCOc1ccc2nc(NC(=O)CSCC(=O)Nc3cc(C)on3)sc2c1	5544	5	10	1.7	-94	-6	1
67	CCN(CC)S(=O)(=O)c1ccc(C(=O)NCc2n[nH]c(=S)n2Cc2ccccc2)cc1	21413*	-6	7	0.5	7	1	-4
68	CCOC(=O)c1c(N)sc(C(O)(C(F)(F)F)C(F)(F)F)c1-c1ccc(OC)cc1OC	9419	-13	-4	3.9	-5	0	-12
69	CSCC[C@H](NC(=O)[C@H]1N2C(=O)c3ccccc3C2SC1(C)C)C(=O)NCc1ccncc1 (some centres not stated)	5902	9	-2	1.2	-15	-1	10
70	COc1cccc(C(=O)NCCS(=O)(=O)NCc2ccc(Cl)cc2)c1	4626	-6	-3	4.8	-17	1	7
71	CCOc1ccccc1-c1nnc(SCC(=O)NC2CC3CCC2C3)n1CC (configuration not stated)	2876	11	12	-0.7	-20	2	6
72	O=C(CNC(=O)c1ccccc1F)NCCOc1ccccc1Cl	2036	-3	-2	4.5	0	-5	2

# Pulled by compound from the entries so far, three records:
nr	structure	Autofluor counter	Mtb hypoxia inh	Mtb hypoxia inh growth	Sa RN4220 lethal	PrP UTR inh	BJeLR lethal	ugtP null kill
52	CC(Sc1nnc(N)s1)C(=O)c1c(N)n(C)c(=O)n(C)c1=O (configuration not stated)	6360	2	-8	3.1	-13	·	5
11	CC(C)CCN1CCN(C/C=C/c2ccco2)CC1CCO (configuration not stated)	3960	7	-4	5.7	-19	13	0
44	CC(=O)Nc1nc(-c2ccccc2)nc(-c2ccccc2OC(C)=O)n1	8246	15	6	14	4	-9	-11

# 4 compounds out of the list, arranged by heavy-atom count, descending.
nr	structure	Autofluor counter	Mtb hypoxia inh	Mtb hypoxia inh growth	Sa RN4220 lethal	PrP UTR inh	BJeLR lethal	ugtP null kill
67	CCN(CC)S(=O)(=O)c1ccc(C(=O)NCc2n[nH]c(=S)n2Cc2ccccc2)cc1	21413*	-6	7	0.5	7	1	-4
64	CCN(CC)S(=O)(=O)c1ccc(NC(=O)COC(=O)c2ccc(Br)o2)cc1	3654	·	·	2.9	-11	-1	8
63	c1ccc(-c2nc3nc4ccccc4nc3n2Cc2ccco2)cc1	4715	5	4	2.9	-46	-3	-3
65	N#Cc1cc2c(nc1SC1CCCCC1O)CCCC2 (configuration not stated)	3182	-1	3	1.5	-8	-1	0
